From PubChem
Vaccinia Venus: qHTS for Stage-Specific Inhibitors of Vaccinia Orthopoxvirus: Venus Reporter Primary qHTS; Potency, µM (highest dose often 36.5 µM), without a hit: at the highest dose activity change, negative = inhibition, actives largely listed as inhibitors; Vaccinia virus Venus reporter expression, fluorescence; AID 720580, 2013; 330,000 compounds, 0.46% hits; active means well fitted inhibition curve with a large enough effect; inconclusive means small, poorly fitted or top-dose-only effect; inactive means no such curve, though single readings can be large or run the other way; tested in A549 cells; further: nearly all actives have a fitted effect of over 30% in size; inactives centre near -10
Vaccinia mCherry: qHTS for Stage-Specific Inhibitors of Vaccinia Orthopoxvirus: mCherry Reporter Primary qHTS | Vaccinia virus mCherry reporter infection, fluorescence; about a quarter of the inactives have no number | Potency, µM (highest dose often 36.5 µM), for the others: at the highest dose activity change, negative = inhibition, most hits filed as inhibitors | 310,000 compounds, 0.63% hits | AID 720579, 2013; active = well fitted inhibition curve with a large enough effect; inconclusive = small, poorly fitted or top-dose-only effect; inactive = no such curve, though single readings can be large or run the other way; tested in A549 cells; further: nearly all actives have a fitted effect of over 35% in size; inactives centre near -10
Starred values were filed as active, the others as inactive; i = inactive; ? = inconclusive; / = no result given; & = joins results of further samples; [ ] = remark or other dose. On the % scale 0 is the no-effect control and ±100 the full control effect; potency means the concentration at half of the fitted maximal effect.

SMILES | Vaccinia Venus | Vaccinia mCherry
COc1cccc(-c2csc(Nc3ccc(Oc4ccccc4)cc3)n2)c1 | -11% | 26%
CCOc1ccccc1NC(=O)COc1coc(CN2CCc3ccccc3C2)cc1=O | -8% | i
CCCc1cc(=O)oc2c3c(cc(OCC(=O)NCCCn4ccnc4)c12)OC(C)(C)CC3 | -17% | -9%
Cc1ccc(-n2c(SCC(=O)NC3CCS(=O)(=O)C3)nc3ccccc3c2=O)c(C)c1 (centres undefined) | -14% | i
CC(C)(C)C(=O)Nc1c(Cl)cccc1OC(F)(F)F | -20% | i
Cc1ccc(C(=O)O/N=C(/c2nonc2N)N(C)C)cc1 | 4% | /
Cc1c(C(=O)OC(C)C)sc2nc[nH]c(=O)c12 | -8% | -20%
CCOC(=O)c1cc(CC)sc1NC(=O)c1cc(OC)c(OC)c(OC)c1 | -9% | -19%
COc1ccc(N(CC(=O)NCCSCc2ccco2)S(=O)(=O)c2ccccc2)cc1 | -1% | i
C/C(=N\NC(=S)NCCc1ccccc1)c1ccc(O)cc1O | -21% | ?
O=S(=O)(NCCSc1nnc(-c2ccco2)n1-c1ccccc1)c1ccccc1 | -13% | /
CCc1ccc(NC(=O)COC(=O)CCC2CCCC2)cc1 | -4% | -11%
Cc1ccccc1NC1=C(Cl)C(=O)OC1OC(=O)c1ccccc1C (centres undefined) | ? | ?
O=C(COC(=O)c1ccc(Cl)cc1)NC(=O)NC1CCCC1 | 2% | i
Cc1nc(N2CCN(S(=O)(=O)c3ccccc3)CC2)c2cc(-c3ccccc3)sc2n1 | -13% | /
CC(C)(C)OC(=O)N1CCC(NC(=O)c2nc[nH]c2C(=O)NCc2ccccc2)CC1 | -13% | ?
CCOc1cc(C2C(C#N)=C(N)OC3CCCC(=O)C32)ccc1OCCN1CCOCC1 (centres undefined) | -9% | /
O=C(CN(Cc1cccs1)C(=O)CCC(=O)Nc1nccs1)NCc1ccccc1 | -16% | -15%
Cn1cc(C(=O)NCCc2ccc(Cl)cc2)c(=O)c2cc(S(=O)(=O)N3CCCCC3)ccc21 | 3% | -1%
Cc1cc(C)c(NC(=O)CN2C(=O)c3cccnc3Oc3ccc(Cl)cc32)c(C)c1 | -10% | -12%
CC(C)NC(=O)CSc1nncn1-c1ccccc1 | -6% | -6%
O=S(=O)(NCC1CC1)c1cc(Cl)cc(Cl)c1 | -10% | i
COc1ccc(/C=N/n2c(SC)nnc(C(C)(C)C)c2=O)cc1OC | -18% | /
CC(=O)N1CCC(N(CCCOC(C)C)C(=O)Nc2ccc(C)c(C)c2)CC1 | -6% | -1%
CN(C)CCCN1C(=O)c2oc3ccc(F)cc3c(=O)c2C1c1cccnc1 (centres undefined) | 5% | -14%
CC1=CC(C)(C)Nc2ccccc21 | ? | -13%
CCOC(=O)c1cc2c(=O)n3ccccc3nc2n(C(C)C)c1=NC(=O)c1c(-c2c(F)cccc2Cl)noc1C | -10%&-3% | -13%&-14%
Cc1cc2nn(-c3ccc(F)cc3)nc2cc1NC(=O)c1ccc(C(C)(C)C)cc1 | -14% | -12%
COc1cccc(NC(=O)CSc2nc3c([nH]c4ccccc43)c(=O)n2-c2cccc(Cl)c2)c1 | -6%[7.34 µM] | -3%[7.34 µM]
CCOc1ccc(C(c2c(O)cc(C)n(Cc3ccco3)c2=O)N2CCCCC2)cc1 (centres undefined) | -11% | -17%
COc1ccc(C(=O)NC(=S)NNC(=O)COc2ccccc2)cc1 | -15% | ?
Cc1ccc(-c2nc(=N)sn2Cc2ccccc2)cc1 | -11% | 8%
CC(=O)Nc1ccc(NC(=O)C(C)OC(=O)CCCN=C2NS(=O)(=O)c3ccccc32)cc1 (centres undefined) | -18% | i
CCc1nnc(NC(=O)CCC(=O)N2CCN(Cc3cc(Cl)ccc3OC)CC2)s1 | -15% | /
CCNC(=O)C1(C)CCCN(CC(=O)c2ccccc2OC)C1 (centres undefined) | -18% | i
c1ccc2c(c1)CSc1sccc1C2=C1CCNCC1 | -25% | -17%
Cc1cccc(NC(=S)Nc2ccccn2)c1C | 2% | -3%
Cc1cccc(NC(=O)Cn2c(=O)n(C)c3ccccc32)c1 | -12% | -13%
CCOC(=O)[C@H]1[C@H]2COc3ccc(Cl)cc3[C@@H]2N2C(=O)CN(Cc3ccc(Cl)cc3)C(=O)[C@@]12C | -23% | -10%
Cc1cccc(C(=O)Nc2cc3nn(-c4ccc(C(C)C)cc4)nc3cc2C)c1 | -1% | 3%

Exported field by field: four of the compounds above
SMILES: CC1=CC(C)(C)Nc2ccccc21
  Vaccinia Venus: ? | Vaccinia mCherry: -13%
SMILES: CC(=O)Nc1ccc(NC(=O)C(C)OC(=O)CCCN=C2NS(=O)(=O)c3ccccc32)cc1 (centres undefined)
  Vaccinia Venus: -18% | Vaccinia mCherry: i
SMILES: Cc1cccc(NC(=S)Nc2ccccn2)c1C
  Vaccinia Venus: 2% | Vaccinia mCherry: -3%
SMILES: CCNC(=O)C1(C)CCCN(CC(=O)c2ccccc2OC)C1 (centres undefined)
  Vaccinia Venus: -18% | Vaccinia mCherry: i

(list continues)
SMILES | Vaccinia Venus | Vaccinia mCherry
CCN(CC)c1ccc(/C=N/NC(=O)Cc2cccs2)cc1 | 0% | -18%
COc1ccc2c(c1)N(C)C(=O)CC(c1ccccc1)=N2 | -5% | /
Cc1ccc(N(Cc2cc3cc(C)ccc3[nH]c2=O)S(=O)(=O)c2ccccc2)cc1 | -18% | -7%
Brc1ccc(N=C/C=C/C=C/Nc2ccc(Br)cc2)cc1 | -25% | -9%
Cc1ccc(-n2c(SCC(=O)N3CCc4ccccc43)nc3c([nH]c4ccccc43)c2=O)cc1 | 4% | -5%
OC(c1ccccc1)c1nc(/C=C/c2ccccc2)cs1 (centres undefined) | -1% | -9%
COc1ccc(CNC(=O)Nc2ccc3c(c2)c(=O)n(C)n3Cc2cccc(C(F)(F)F)c2)cc1 | -22% | ?
CC12CN3CC(C)(CN(C1)C3c1ccc3c(c1)OCO3)C2=O (centres undefined) | -1% | -9%
Cc1cccc(N(C(=O)CNC(=O)c2cccs2)C(C(=O)NC2CCCC2)c2ccncc2)c1 (centres undefined) | 8% | i
CCCOc1cccc(C2/C(=C(/O)c3ccc4c(c3)CC(C)O4)C(=O)C(=O)N2CCN2CCOCC2)c1 (centres undefined) | -17% | i
Nc1nc2nc(-c3cccs3)cc(C(F)(F)F)n2n1 | -7% | i
CCN1CCCC1CNC(=O)C(=O)NCCc1ccc(OC)c(OC)c1 (centres undefined) | -6% | i
Nc1nc(SCc2nc3scc(-c4cccs4)c3c(=O)[nH]2)n[nH]1 | ? | /
COc1ccccc1NS(=O)(=O)c1ccc2oc(SCC(C)=O)nc2c1 | 5% | -10%
O=C(Cn1nc2c(cc1=O)CCCC2)Nc1ccc(F)cc1F | -6% | -13%
COc1ccc(OC)c(Nc2nc(NCCC(C)C)nc(N)c2[N+](=O)[O-])c1 | ? | -17%
Cc1ccc(N(C(=O)CCl)C(C(=O)NC2CCCCC2)c2cccnc2)cc1C (centres undefined) | 7.1µM* | ?
CCN(CC)c1ccc(C(=O)N/N=C(\C)c2cccc(OC)c2)cc1 | -14% | -23%
N#Cc1cncc(-c2ccc3c(c2)OCCOCCOCCOCCOCCO3)n1 | -8% | -19%
Cc1scc(C(=O)N/N=C/c2ccc(Cl)s2)c1C | -20% | -5%
Cc1cc(Nc2ccccc2)n(C(=O)c2ccccc2)n1 | -8% | -8%
c1ccc2c(c1)c1c(c3ccccc32)CN2CCCC2C1 (centres undefined) | ? | -27%
O=S(=O)(Cc1cc(-c2ccccc2Cl)no1)c1ccccc1 | -2% | i
c1ccc(CNc2c(C3CCNCC3)nc3scc(-c4ccccc4)n23)cc1 | -4% | -3%
NC1=NC(=O)/C(=C/c2ccc(-c3ccc(S(N)(=O)=O)cc3)o2)S1 | 4% | i
CN(C)CCCNC(=O)c1ccccc1Oc1ccccc1 | -1%[7.34 µM] | i[7.34 µM]
COCC(C)NC(C(=O)Nc1ccc(Cl)c([N+](=O)[O-])c1)c1ccccc1 (centres undefined) | -7% | i
CCc1ccc(C(=O)/C=C/Nc2ccc(S(=O)(=O)Nc3onc(C)c3C)cc2)cc1 | -15% | -17%
COc1cccc(C2(c3cccc(OC)c3)CC2C(=O)Nc2cccc3ccccc23)c1 (centres undefined) | -2% | -18%
Cc1ccc(CN2CCC(c3cc(-c4cccs4)n[nH]3)CC2)cc1 | -18% | -27%
Cn1ncc(Cl)c1C(=O)N/N=C/c1ccccn1 | -8% | -8%
CN(C)c1ccc(/C=C2\C=Cc3ccccc32)c(Cl)c1 | -16% | i
Cc1ccc(CN2CC(=O)N3[C@H]4c5ccccc5OC[C@@H]4[C@H](c4ccccc4)[C@]3(C)C2=O)cc1 | ? | ?
CCn1nnnc1NC(=O)c1ccc2ccccc2c1 | -4% | 11%
COc1ccc(C)cc1S(=O)(=O)Nc1cc2c3c(c1)CCN3C(=O)CC2 | -6% | -20%
Cc1cc(OCC(=O)N[C@H](C(=O)O)c2ccccc2)c2c3c(c(=O)oc2c1)CCC3 | -4% | 1%
C#CCNc1ccncc1S(=O)(=O)NC(=O)NC(C)C | 4% | /
Cc1cc(NC(=O)CSc2nc(=O)n(CCCN(C)C)c3c2CCCC3)no1 | -5% | -17%
CCSc1nc(-c2ccccc2)cc(=O)[nH]1 | -8% | -9%
CN1C(=O)C(O)(CC(=O)c2ccncc2)c2ccccc21 (centres undefined) | 3% | 4%
COc1ccc(-c2nc(CN3CCC(C(=O)N4CCc5ccccc54)CC3)c(C)o2)cc1OC | -18% | -18%
O=C(Cn1cc(COc2c(F)c(F)c(Br)c(F)c2F)nn1)c1ccc(O)cc1 | -4% | -3%
O=C(N/N=C/c1ccc(Br)s1)c1ccco1 | -22% | -23%
COc1ccc(C2CC(c3ccccc3)=NN2C(=O)COC(=O)c2cnc(Cl)c(Cl)c2)cc1 (centres undefined) | 3% | -13%
Cc1ccc(NS(=O)(=O)c2cccc(C(=O)n3ncc(C#N)c3N)c2)c(C)c1 | -3% | -3%
Cc1ccc(-n2ncc3c(SCC(=O)Nc4cc(C)on4)ncnc32)c(C)c1 | -3% | -13%
CCCCn1c(-c2ccc(C(C)(C)C)cc2)nc2cc3[nH]c(=O)c(C(C)C)nc3cc21 | ? | 10µM*
CC(=O)N1CCC(c2nc3ccccc3n2C(C)C(=O)NCc2ccccc2)CC1 (centres undefined) | -11% | -10%
O=C(CCCCCNC(=O)c1ccccc1)N/N=C/c1ccccc1 | 5% | -8%
CCn1cc(CNC(=O)c2cc(-c3ccc(C)cc3)nc3ccc(Br)cc23)c(C)n1 | 7% | 1%
O=C(c1ccc([N+](=O)[O-])cc1)N1CCN(C2=NS(=O)(=O)c3ccccc32)CC1 | -14% | -7%
COc1ccc(/C=C/c2c(-c3ccc(OC)cc3)oc3cccnc23)cc1 | -8% | -14%
Cc1cccc(Cn2c(SCc3ccc(C(=O)NCCc4ccccc4)cc3)nc3ccncc32)c1 | ? | ?
NC(=O)C1CCN(C(=O)OCc2ccccc2)CC1 | -18% | -20%[1.46 µM]
Cc1ccccc1OCC(=O)Nc1ccc2nc(SCCOc3ccccc3)sc2c1 | -23% | -12%
O=C(NC1CCSc2ccccc21)c1cccc(Cl)c1 (centres undefined) | -3% | i
CC1CN(C(=O)c2cc3ccccc3cc2O)CC(C)O1 (centres undefined) | -12% | -16%
COc1ccc(C(=O)NCc2nnc(SCC(=O)NC3CCCC3)o2)cc1 | -4% | -10%
Cc1ccccc1OCCSc1nc(C)c(Cc2ccccc2)c(=O)[nH]1 | -13% | -19%
COc1ccc2nc(C)cc(Nc3ccc(Cl)c(Cl)c3)c2c1 | -29% | ?

An excerpt of these results, with two lines to a compound.
Each structure is followed by: Vaccinia Venus	Vaccinia mCherry
COc1ccc(-c2nc(CN3CCC(C(=O)N4CCc5ccccc54)CC3)c(C)o2)cc1OC
    -18%	-18%
CC1CN(C(=O)c2cc3ccccc3cc2O)CC(C)O1 (centres undefined)
    -12%	-16%

Next section
SMILES | Vaccinia Venus | Vaccinia mCherry
COc1cc(/C=C/C(=O)OCC(=O)NC(=O)NC(C)C)cc(OC)c1OC | -20% | i
CC1(C)c2ccccc2C(=O)c2ccccc21 | -14% | -13%
O=C(CNC(=O)c1sc2ccccc2c1Cl)NCc1ccc(F)cc1 | -15% | -16%
CCNC(=S)Nc1cccc(S(=O)(=O)Nc2ccccc2OC)c1 | -21% | -20%
Cc1ccc(NC(=O)c2c(NC(=O)CCC(=O)O)sc3c2CCCCC3)cc1 | 8% | -1%
COC(=O)C1=C(N)OC2=C(C(=O)CC(C)(C)C2)C1c1cccnc1 (centres undefined) | -5% | -12%
CC(C)C(=O)NNC(=O)c1ccccn1 | -4% | -25%
COc1cnc(SC(C)C)[nH]c1=O | -6% | -4%
Cc1c(COc2ccc3ccccc3c2)nnn1CC(=O)NS(=O)(=O)c1ccccc1C(F)(F)F | -28% | -15%
Cc1cccc(C(=O)NC(C(=O)Nc2ccccc2N2CCOCC2)C(C)C)c1 (centres undefined) | -15% | -2%
C[C@H]1CN([C@@H](C)CO)C(=O)c2cc(Br)cnc2O[C@H]1CN(C)C(=O)c1ccc2c(c1)OCO2 | -6% | -1%
CCC(c1ccccc1)c1nc(-c2cccnc2)no1 (centres undefined) | -4% | -12%
